# GIRK2 act: GIRK2 channel activation | HEK293-GIRK2 thallium flux, Thallos fluorescence | calls only for hits at 25 µM | 63,000 tested, 0.05% active | AID 1259325;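 active = among the strongest 0.2% of first-round signals and kept after retests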;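 note: first round at about 10 µM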
# Target sequence (P48051 whole entry, looked up): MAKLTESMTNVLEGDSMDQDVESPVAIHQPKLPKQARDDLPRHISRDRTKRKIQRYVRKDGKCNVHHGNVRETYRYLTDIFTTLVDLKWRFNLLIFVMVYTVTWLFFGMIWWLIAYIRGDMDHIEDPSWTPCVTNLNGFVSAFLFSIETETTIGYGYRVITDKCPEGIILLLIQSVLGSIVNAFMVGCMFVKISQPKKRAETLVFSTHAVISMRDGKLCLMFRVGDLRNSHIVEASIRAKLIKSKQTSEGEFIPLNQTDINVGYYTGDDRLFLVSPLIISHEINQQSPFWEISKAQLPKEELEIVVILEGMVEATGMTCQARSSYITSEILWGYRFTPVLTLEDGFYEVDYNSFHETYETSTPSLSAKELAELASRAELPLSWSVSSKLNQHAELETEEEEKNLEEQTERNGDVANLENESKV
# Calls only; i = inactive.
SMILES,GIRK2 act
O=C(c1ccc(F)c(F)c1)N(Cc1ccoc1)Cc1cccs1,i
COc1ccc(NC(=O)Nc2ccc(Nc3cc(-n4cccn4)ncn3)cc2)cc1Cl,i
COc1ccccc1NC(=O)CSc1nc2ncccc2c(=O)n1Cc1ccc(F)cc1,i
COc1ccc(S(=O)(=O)Nc2cccc(-c3csc4nc(C)cc(=O)n34)c2)cc1C,i
COc1ccccc1OCCN1C(=O)C2(SC(NC(C)=O)=NN2C(C)=O)c2ccccc21 (centres undefined),i
Cc1cc(=O)[nH]c2c(C)cc(S(=O)(=O)NC3CCCCC3)cc12,i
CCCCn1c(=O)c2c(nc3n(CCCN4CCOCC4)c(C)cn23)n(C)c1=O,i
Cc1ccc(NC(=O)Cn2cc(C(=O)N3CCCCC3)c(=O)c3ccc(C)nc32)c(C)c1,i
O=C(NCC1CCN(S(=O)(=O)c2cccnc2)CC1)C(=O)Nc1cc2c3c(c1)CC(=O)N3CCC2,i
COc1cccc(NC(=O)CSc2nccn2-c2ccc(C(=O)NCc3cccs3)cc2)c1,i
CCOC(=O)c1ccc2nc(NC(=O)c3cc(-c4ccco4)on3)sc2c1,i
COc1ccc(OC)c(N2CCCn3c2nc2c3c(=O)n(C)c(=O)n2C)c1,i
CCOc1cc(NC(=O)CCc2c(C)noc2C)ncn1,i
O=C1CC(NC(=O)C23CC4CC(CC(C4)C2)C3)CN1C1CC1 (centres undefined),i
COc1ccc(S(=O)(=O)c2c(C)cc(C)n(CC(=O)Nc3cccc(Cl)c3)c2=O)cc1,i
O=C(Cn1cccc(S(=O)(=O)N2CCCC2)c1=O)Nc1ccccc1Cl,i
Cc1cc(=O)[nH]c(-n2nc(-c3cccs3)cc2NC(=O)C(=O)c2c(C)[nH]c3ccccc23)n1,i
CN(C)CCc1c[nH]c2ccc(Cn3cncn3)cc12,i
O=C(CCc1csc(NC(=O)c2ccco2)n1)Nc1ccc2c(c1)OCO2,i
CC1CCCCN1S(=O)(=O)c1ccc([N+](=O)[O-])cc1 (centres undefined),i
O=C1O/C(=C/Br)CC[C@H]1c1cccc2ccccc12,i
CCN(CC)CCN1C(=O)c2oc3cc(C)c(C)cc3c(=O)c2C1c1cccc(Cl)c1 (centres undefined),i
O=C(CSc1nccn1-c1ccc(C(=O)NCc2ccccc2)cc1)NC1CCCC1,i
Cc1ccc(NC(=O)CCNS(=O)(=O)c2cc(N(C)S(C)(=O)=O)c(C)cc2C)cc1,i
Cc1ccc(S(=O)(=O)CC(=O)Nc2sc3c(c2-c2nc4ccccc4s2)CCN(C)C3)cc1,i
CSc1ccccc1NC(=O)Cc1c(C)nc(SCc2ccccc2F)[nH]c1=O,i
O=C(Cn1nc(-c2ccc(F)cc2)ccc1=O)Nc1cc(N2CCOCC2)ncn1,i
Cc1csc(-c2coc3c(C)c(OC(=O)c4ccccc4Cl)ccc3c2=O)n1,i
Cc1ccc(NC(=O)C2CCC(CNS(C)(=O)=O)CC2)cc1Cl (centres undefined),i
CC(=O)c1ccc(NC(=O)CSc2ncc(-c3cccc(Cl)c3)o2)cc1,i
CCOC(=O)N1CCN(C(=O)c2sc3ncccc3c2-n2cccc2)CC1,i
NS(=O)(=O)c1ccc(Nc2cc(-c3ccccc3)ncn2)cc1,i
COc1cccc(C(=O)N(CCCn2ccnc2)c2nc3cc(C)cc(C)c3s2)c1OC,i
O=C(c1ccc(Cn2c(=O)[nH]c3ccsc3c2=O)cc1)N1CCCCC1,i
Cc1cc(NC(=O)C(=O)NCC(C)(O)c2ccc3c(c2)OCO3)no1 (centres undefined),i
COc1ccc(NC(=O)NCCN2CCN(c3ccccc3)CC2)cc1OC,i

# As a working copy, part of the list above:
SMILES,GIRK2 act
CC1CCCCN1S(=O)(=O)c1ccc([N+](=O)[O-])cc1 (centres undefined),i
O=C1O/C(=C/Br)CC[C@H]1c1cccc2ccccc12,i
CCN(CC)CCN1C(=O)c2oc3cc(C)c(C)cc3c(=O)c2C1c1cccc(Cl)c1 (centres undefined),i
O=C(CSc1nccn1-c1ccc(C(=O)NCc2ccccc2)cc1)NC1CCCC1,i
Cc1ccc(NC(=O)CCNS(=O)(=O)c2cc(N(C)S(C)(=O)=O)c(C)cc2C)cc1,i
Cc1ccc(S(=O)(=O)CC(=O)Nc2sc3c(c2-c2nc4ccccc4s2)CCN(C)C3)cc1,i
CSc1ccccc1NC(=O)Cc1c(C)nc(SCc2ccccc2F)[nH]c1=O,i
O=C(Cn1nc(-c2ccc(F)cc2)ccc1=O)Nc1cc(N2CCOCC2)ncn1,i
Cc1csc(-c2coc3c(C)c(OC(=O)c4ccccc4Cl)ccc3c2=O)n1,i
Cc1ccc(NC(=O)C2CCC(CNS(C)(=O)=O)CC2)cc1Cl (centres undefined),i
CC(=O)c1ccc(NC(=O)CSc2ncc(-c3cccc(Cl)c3)o2)cc1,i
CCOC(=O)N1CCN(C(=O)c2sc3ncccc3c2-n2cccc2)CC1,i
NS(=O)(=O)c1ccc(Nc2cc(-c3ccccc3)ncn2)cc1,i
COc1cccc(C(=O)N(CCCn2ccnc2)c2nc3cc(C)cc(C)c3s2)c1OC,i
O=C(c1ccc(Cn2c(=O)[nH]c3ccsc3c2=O)cc1)N1CCCCC1,i
Cc1cc(NC(=O)C(=O)NCC(C)(O)c2ccc3c(c2)OCO3)no1 (centres undefined),i
COc1ccc(NC(=O)NCCN2CCN(c3ccccc3)CC2)cc1OC,i

# Next compounds follow:
SMILES,GIRK2 act
CC(=O)Cn1c(=O)c2c(nc3n(-c4ccccc4)c(C)c(C)n23)n(C)c1=O,i
Cc1ccc(Nc2cc(N3CCC(C(=O)N4CCC5(CC4)OCCO5)CC3)ncn2)cc1,i
COc1nn(C)cc1C(=O)N1CC(c2nc(C)no2)C1,i
CCCn1c(-n2nc(C)cc2C)nc2c1c(=O)n(CCN1CCOCC1)c(=O)n2C,i
N#Cc1cccc(C(=O)NCCC(O)c2cccc3ccccc23)c1 (centres undefined),i
CC(C)C(NC(=O)c1ccc(F)cc1)c1nc2ccccc2[nH]1 (centres undefined),i
COc1ccc(S(=O)(=O)NCCCn2ncccc2=O)c(OC)c1,i
Nc1nccc(-c2c(-c3ccc(F)cc3)ncn2C2CCC(O)CC2)n1 (centres undefined),i
Cc1[nH]c2ccccc2c1C(=O)C(=O)Nc1cc(C2CC2)nn1-c1nc(C(C)C)cc(=O)[nH]1,i
CCc1ccc(N2C(=O)C3N=NN(c4ccc(F)c(Cl)c4)C3C2=O)cc1 (centres undefined),i
Cc1nc(C)n2c(=O)n(CC(=O)NCc3ccc(F)cc3)nc2c1C,i
CCOc1ccc(-c2noc(CN3N=NC4C(=O)N(c5ccc(F)cc5)C(=O)C43)n2)cc1OC (centres undefined),i
Cc1ccc2oc3c(c(=O)c2c1)C(c1cccc([N+](=O)[O-])c1)N(CCCO)C3=O (centres undefined),i
COc1nn(C)cc1C(=O)N1CCN(CC(O)c2ccco2)CC1 (centres undefined),i
COc1ccc(Br)c(C(=O)N2CCN(C(=O)c3cnn4ccccc34)CC2)c1,i
O=C(Cn1nc2c(Sc3cccc(F)c3)nccn2c1=O)Nc1ccc(Br)cc1,i
CCOC(=O)CCn1c(=O)c2c(nc3n(C4CCCCC4)c(C)cn23)n(C)c1=O,i
C=Cc1ccc(CN(c2ccc(F)c(F)c2)S(=O)(=O)c2cccn3c(C)nnc23)cc1,i
CO[C@H]1O[C@@H]2O[C@@]3(C)CC[C@H]4[C@H](C)CC[C@@H]([C@H]1C)[C@@]24OO3,i
Cc1cccc(NC(=O)CCn2c(=O)oc3ccc(Cl)cc32)c1,i
N#Cc1c(NC(=O)c2ccc(F)cc2)sc2c1CCCC2,i
CC(CCc1ccccc1)NC(=O)CCCCCn1c(=S)[nH]c2cc3c(cc2c1=O)OCO3 (centres undefined),i
CC(=O)Cn1c(=O)c2c(nc3n(-c4ccc(F)cc4)c(C)c(C)n23)n(C)c1=O,i
CCc1ccccc1NC(=O)CSc1ncnc2nc(-c3ccc(C)cc3)ncc12,i
Cc1ccc(-c2csc3c(=O)[nH]c(N4CCCC(C(=O)O)C4)nc23)cc1 (centres undefined),i
O=C(/C=C/c1ccc2c(c1)OCO2)N1CCC2(CC1)OCCS2,i
Cc1nnc(SCC(=O)NCc2ccco2)c2c1cnn2-c1ccccc1,i
CCOc1ccc(S(=O)(=O)NC(C)C)c2ccccc12,i
COC(=O)CS(=O)(=O)C1CCN(C(=O)c2cc3cc(F)ccc3s2)CC1,i
CC(C)(C)C(=O)Oc1ccc2c(=O)c(-c3nc4ccccc4s3)coc2c1,i
CC1(C)COc2ccc(NC(=O)Nc3ccc(F)cc3)cc2NC1=O,i
O=C(NCc1cc(F)cc(F)c1)c1nn(-c2ccccc2)c2ccccc2c1=O,i
O=C(CCn1cnc2ccccc2c1=O)N1CC(c2nc(-c3ncccn3)no2)C1,i
Clc1ccc(CO/N=C(\Cn2ccnc2)c2ccc(Cl)cc2Cl)c(Cl)c1,i
O=C(NCc1ncc(-c2ccccc2)[nH]1)c1cc(Cl)ccc1Cl,i
COc1cc(CN2CCN(CC(O)c3ccco3)CC2)cc(OC)c1 (centres undefined),i
O=C(Nc1ccccc1)Nc1nc(CCC(=O)N2CCN(c3ccccc3)CC2)cs1,i
O=C(CCSc1ccccc1)N(Cc1ccoc1)Cc1cccs1,i
Cn1nnn(-c2ccc(NC(=O)Nc3cccc(Cl)c3)cc2)c1=O,i
Cc1cc(C)c(S(=O)(=O)NCCC(N)=O)cc1N(C)S(C)(=O)=O,i
CC(=O)N1CCC(c2nn(C)c(=O)n2-c2ccccc2)CC1,i
CC1CCN(C(=O)CCC2=NNC3C4CC(c5ccc(F)cc5)NN4C=CN23)CC1 (centres undefined),i
COc1cc(NC(=O)Cn2cc(-c3nc(-c4ccc(Cl)cc4)no3)ccc2=O)cc(OC)c1OC,i
Cc1ccc(C2NC(=O)N(CC(=O)Nc3ccc(C)cc3Cl)C3=C2C(=O)OC3)cc1 (centres undefined),i
O=C(CSCc1ccccc1)N(CCc1cccs1)Cc1ccoc1,i
COC(=O)c1sccc1S(=O)(=O)N1CC2(COC(C)(C)OC2)C1,i
O=C(NCCCc1ccccc1)C1CCCN(c2nc3c(-c4ccccc4)csc3c(=O)[nH]2)C1 (centres undefined),i
CNC(=O)Cc1ccc(-n2c(=O)c3ccccc3n(Cc3ccc(F)cc3Cl)c2=O)cc1,i

# Quoted at random: 2 records from the list.
SMILES,GIRK2 act
Cc1cc(C)c(S(=O)(=O)NCCC(N)=O)cc1N(C)S(C)(=O)=O,i
COC(=O)c1sccc1S(=O)(=O)N1CC2(COC(C)(C)OC2)C1,i

# Next part:
SMILES,GIRK2 act
O=C(Cc1c(F)cccc1Cl)N1CCC(Oc2nc3c(F)cc(F)cc3s2)CC1,i
Cc1nc(C)c(C(=O)N2CCOCC2CN(C)CCO)s1 (centres undefined),i
O=C(c1ccc(OC(F)(F)F)cc1)N1CCC(COCc2ccc(F)cc2)CC1,i
CC(C)Oc1ccc(-c2noc(Cn3nc(-c4ccccc4)ccc3=O)n2)cc1,i
O=C(c1cnc2ccccc2n1)N1CCN(CC(F)(F)F)CC1,i
O=C(/C=C\c1ccccc1)Nc1c2c(nn1CC(=O)NCC1CCCO1)CSC2 (centres undefined),i
CCOC(=O)Cn1c(=O)c2c(nc3n(-c4cccc(OC)c4)c(C)cn23)n(C)c1=O,i
Cc1cc(C)c2sc(NC(=O)c3ccc(Br)o3)nc2n1,i
CCN1CCc2c(sc(NC(=O)CCc3ccccc3)c2-c2nc3ccccc3s2)C1,i
Cc1nnsc1C(=O)NCC1(O)CCc2ccccc2C1 (centres undefined),i
Cc1c(Cl)cccc1S(=O)(=O)NCCn1nc(C2CC2)n(-c2ccccc2)c1=O,i
COc1cc(O)c2c(c1)C(O)(CC=C(C)C)c1cc(C)cc(O)c1C2=O (centres undefined),i
CC(=O)c1ccc(NC(=O)CSc2nccc(N3CCCC3)n2)cc1,i
Cc1noc(-c2ccc(N3CCC(NC(=O)c4ccsc4)C3)nc2)n1 (centres undefined),i
CCc1ccccc1-n1c(C)c(C)n2c3c(=O)n(CCC(=O)OC)c(=O)n(C)c3nc12,i
Cc1cc(NC(=O)C2CCN(c3ccc(-n4cccn4)nn3)CC2)no1,i
Cc1cccc(-n2c(C)c(C)n3c4c(=O)n(CCN5CCOCC5)c(=O)n(C)c4nc23)c1C,i
CCOc1cccc2sc(N(CCCn3ccnc3)C(=O)c3ccc(F)cc3)nc12,i
O=C(c1ccc(=O)[nH]c1)N1CCN(Cc2csc(-c3ccccc3)n2)CC1,i
Cc1c(C)n2c3c(=O)n(CCc4ccccc4)c(=O)n(C)c3nc2n1Cc1ccco1,i
COc1ccc(S(=O)(=O)N2CCCOC2CNC(=O)C(=O)NCCC2=CCCCC2)cc1 (centres undefined),i
Cc1cc(C)cc(-n2ccn(Cc3ccccc3)c(=O)c2=O)c1,i
CC(=O)c1ccc(NC(=O)Cn2cc(-c3ccccc3)c3ncn(C(C)C)c(=O)c32)cc1,i
CNC(=O)Cn1nnn(-c2ccc(NC(=O)CCS(=O)(=O)c3ccccc3)cc2)c1=O,i
Cc1cc(C)c(NC(=O)Cn2nc3n(c(=O)c2=O)CCN3c2ccccc2)c(C)c1,i
COc1ccc(CNC(=O)COc2cc(C)nc(N3CCCCC3)n2)cc1,i
Cn1c(=O)n(CC(=O)c2ccccc2)c(=O)c2c(N3CCN(C(=O)c4ccco4)CC3)ccnc21,i
CCCNC(=O)C1CCC(Cn2c(=O)c3sccc3n(Cc3ccc(C)cc3)c2=O)CC1 (centres undefined),i
O=C(NCc1ccco1)c1nnn(-c2ccc(F)cc2)n1,i
O=C(NCCC(c1ccccc1)c1ccccc1)c1cnn2c1OCCC2,i
COc1cc2c(cc1OC)CN(S(=O)(=O)CCCNC(=O)C(C)C)CC2,i
Cc1c(C(=O)Nc2cccc(F)c2)nnn1-c1ccc(C(C)C)cc1,i
Cc1nc(NCCNC(=O)c2ccccc2)cc(-n2cccc2)n1,i
O=S(=O)(Cc1ccc(F)cc1)Nc1ccc(N2CCCS2(=O)=O)cc1,i
CNC(=O)CSc1nnc(N2CCN(C(=O)c3cc(C)oc3C)CC2)s1,i
Cc1ccc(Oc2nccn3c(=O)n(CC(=O)Nc4c(C)cc(C)cc4C)nc23)cc1,i
O=C1c2oc3ccc(Br)cc3c(=O)c2C(c2ccccc2)N1c1nccs1 (centres undefined),i
CCc1cccc2sc(N(CC3CCCO3)C(=O)c3ccccc3SC)nc12 (centres undefined),i

# Source: PubChem BioAssay

# This is a subset. The share of hits here may be higher or lower than overall.
